Source: PubChem (ICCB-Longwood Screening Facility, Harvard Medical School)
BmaI1 = BmaI1 acyl-homoserine lactone synthase inhibition – biochemical, fluorescence intensity, with counterscreen (AID 720554). BmaI1 enzyme assay, fluorescence intensity; active compounds read high; test concentration not given here; a few actives read low; strong numbers were not always called active. inhibition, %. actives 0.4% (n = 12,000);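 active = both replicates within 2 robust z-scores of the inhibited control and a quiet counterscreen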;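 also: 0% = uninhibited enzyme and 100% = inhibited control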
BmaI1 counterscreen = second read-out of BmaI1, no call of its own (marks repeat the call); inhibition, %; measured here: counterscreen; design of the counterscreen not given here;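 first of two replicates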
The depositor's hits bear a star; & = joins results of further samples.

SMILES	BmaI1	BmaI1 counterscreen
CN(C)C(CNC(=O)Cc1cccc(C(F)(F)F)c1)c1ccco1 (centres undefined)	8	5
CCCCNC(=O)NS(=O)(=O)c1ccc(C)cc1	-4	8
O=C(Nc1ccccc1)Nc1nccs1	18	74
O=C(CSc1nncn1-c1ccccc1)c1ccccc1	21	17
CCOc1cc(CC(=O)N[C@@H](CC(C)C)c2ccccc2N2CCCCC2)ccc1C(=O)O	5	-3
CCS(=O)(=O)c1ccc2oc(SCC(=O)NC34CC5CC(CC(C5)C3)C4)nc2c1	4	0
N#Cc1ccc(NCC(=O)Nc2ccc(N3CCOCC3)cc2)cc1	6	-2
COc1ccccc1N1CC(C(=O)OC(C)C(=O)N2CCCc3ccccc32)CC1=O (centres undefined)	20	10
COc1ccc2c(c1)c(C(=O)n1ccnc1)c(C)n2C1CCCCC1	20	14
Cc1[nH]c(=O)c(C#N)cc1-c1ccncc1	6	4
Cc1noc(C)c1COc1ccc(CC(=O)Nc2ccc3c(c2)OCO3)cc1	18	4
COc1cc(C(=O)OCC(=O)c2cc3c4c(c2)CC(=O)N4CCC3)ccc1OC(F)F	11	0
Cc1cc(C(=O)N(C)c2c(N)n(Cc3ccccc3)c(=O)[nH]c2=O)c(C)o1	27	3
O=C(OCC(=O)N1CCCCC1)c1cc2ccccc2oc1=O	-3	-12
CC1CN(c2nc3ccccc3nc2C(C#N)C#N)CC(C)O1 (centres undefined)	17	-6
CC(SCC(=O)NC1CCCCCC1)c1nc2ccccc2c(=O)[nH]1 (centres undefined)	6	1
COC(=O)c1ccc(COc2c(I)cc(Cl)c3cccnc23)o1	11	-1
COc1ccc(NC(=O)CC2C(=O)OCC3CCCCN32)cc1OC (centres undefined)	-5	-1
NS(=O)(=O)c1ccc(CCNC(=O)c2ccc(S(=O)(=O)N3CCCCC3)cc2)cc1	2	12
CC1CCCN(C(=O)CSc2ncnc3ccccc23)C1 (centres undefined)	20	16
COc1c(N2CCNC(C)C2)c(F)cc2c(=O)c(C(=O)O)cn(C3CC3)c12 (centres undefined)	-1	8
CN(C(=O)c1ccco1)C1(c2ccccc2Cl)CCCCC1=O (centres undefined)	10	6
CCOC(=O)c1sc(NS(=O)(=O)c2ccccc2C(F)(F)F)cc1C	35	18
O=C(Cn1[nH]c(=O)c2ccccc2c1=O)N1CCc2ccccc2C1	2	3
O=C(NCC1COc2ccccc2O1)c1cccc(S(=O)(=O)N2CCOCC2)c1 (centres undefined)	-8	2

Exported with bars between the fields: 3 of the compounds above.
Compound | BmaI1 | BmaI1 counterscreen
CN(C(=O)c1ccco1)C1(c2ccccc2Cl)CCCCC1=O (centres undefined) | 10 | 6
CCOC(=O)c1sc(NS(=O)(=O)c2ccccc2C(F)(F)F)cc1C | 35 | 18
O=C(Cn1[nH]c(=O)c2ccccc2c1=O)N1CCc2ccccc2C1 | 2 | 3

The main list resumes; the 7 compounds before the break are reprinted first.
SMILES	BmaI1	BmaI1 counterscreen
NS(=O)(=O)c1ccc(CCNC(=O)c2ccc(S(=O)(=O)N3CCCCC3)cc2)cc1	2	12
CC1CCCN(C(=O)CSc2ncnc3ccccc23)C1 (centres undefined)	20	16
COc1c(N2CCNC(C)C2)c(F)cc2c(=O)c(C(=O)O)cn(C3CC3)c12 (centres undefined)	-1	8
CN(C(=O)c1ccco1)C1(c2ccccc2Cl)CCCCC1=O (centres undefined)	10	6
CCOC(=O)c1sc(NS(=O)(=O)c2ccccc2C(F)(F)F)cc1C	35	18
O=C(Cn1[nH]c(=O)c2ccccc2c1=O)N1CCc2ccccc2C1	2	3
O=C(NCC1COc2ccccc2O1)c1cccc(S(=O)(=O)N2CCOCC2)c1 (centres undefined)	-8	2
O=C1N(Cc2ccccc2)C(c2ccco2)C1(F)F (centres undefined)	18	8
CN(C)C(=O)COC(=O)c1c2c(nc3ccccc13)CCCCC2	24	-4
CC(=O)N(c1ccccc1)c1nc(/C=C/C(=O)N(Cc2ccco2)C2CCS(=O)(=O)C2)cs1 (centres undefined)	6	4
Cc1ccc(-c2cc(-c3nnco3)c3ccccc3n2)cc1	14	6
CNC(=O)NC(=O)C(C)N1CCc2ccccc2C1 (centres undefined)	2	-2
COc1ccccc1C(=O)OC1OCCOC1OC(=O)c1ccccc1OC (centres undefined)	16	18
OC(CNC1CCCC1)c1ccccc1 (centres undefined)	12	5
Cc1cc(=O)oc2cc(OCC(=O)N3CCCC3)c(Cl)cc12	10	2
NC1=C(C(=O)NC2CC2)C(=NC2CCCCC2)SC1C(=O)Nc1cc(Cl)ccc1Cl (centres undefined)	32	8
Cc1csc(SCC(=O)NC(C)c2ccccc2)n1 (centres undefined)	2	-4
O=C([C@@H]1CCCN1C(=O)c1cccs1)N1CCN(Cc2ccc3c(c2)OCO3)CC1	22	2
CCOC(=O)/C(=N\Nc1ccc(Br)cc1)N1CC(C)OC(C)C1 (centres undefined)	62	35
CCCn1ccnc1SCC(=O)NC(=O)NC12CC3CC(CC(C3)C1)C2	16	14
O=C1CCC(C(=O)OCn2nnc3ccccc3c2=O)=NN1	8	0
COc1ccccc1CC(=O)NCC(c1ccco1)N1CCCCC1 (centres undefined)	13	11
O=C(CN1CCN(c2ccccc2Cl)CC1)NCC(F)(F)F	16	14
Cc1occc1-c1nnc(SC(C)c2nc3sc4c(c3c(=O)[nH]2)CCC(C)C4)n1N (centres undefined)	18	6
CN(C)C(=O)CSc1nc2cc(Cl)ccc2o1	6	8
COc1cccc(/C=N/n2c(N3CCOCC3)nc3ccccc32)c1OC	21	15
CC(C)CNC(=O)c1ccc2c(=O)n(CC(C)C)c(=S)[nH]c2c1	16	19
CCN(C(=O)COc1ccc(C)cc1C)C1CCS(=O)(=O)C1 (centres undefined)	5	-1
N#CC1=C(N)C(C#N)(C#N)C(c2ccc(OC(F)F)cc2)C=C1C1CC1 (centres undefined)	24	13
CCNC(=S)N/N=C/c1ccc(OCC(=O)N2CC(C)OC(C)C2)c(OC)c1 (centres undefined)	-25	-10
NC(=O)C1CCCN1c1nc(-c2cccs2)nc2ccccc12 (centres undefined)	10	10
CN1[C@@H]2CCC[C@H]1CC(NC(=O)c1nn(C)c3ccccc13)C2 (some centres undefined)	7	16

In a second layout: entries from further up
smiles | BmaI1 | BmaI1 counterscreen
OC(CNC1CCCC1)c1ccccc1 (centres undefined) | 12 | 5
N#CC1=C(N)C(C#N)(C#N)C(c2ccc(OC(F)F)cc2)C=C1C1CC1 (centres undefined) | 24 | 13
CC(=O)N(c1ccccc1)c1nc(/C=C/C(=O)N(Cc2ccco2)C2CCS(=O)(=O)C2)cs1 (centres undefined) | 6 | 4
O=C(CN1CCN(c2ccccc2Cl)CC1)NCC(F)(F)F | 16 | 14
CN(C)C(=O)COC(=O)c1c2c(nc3ccccc13)CCCCC2 | 24 | -4

(more compounds)
SMILES	BmaI1	BmaI1 counterscreen
Nc1nc2nc3ccccc3n2c(=O)[nH]1	15	9
COc1ccc(S(=O)(=O)N(CCC#N)CCN2CCOCC2)cc1Br	0	5
CCOc1ccc(NC(=O)COc2ncnc3ccccc23)cc1	-4	-6
CCOC(=O)/C=C(\C)N1CCN(c2ccccc2)CC1	-2	-1
CCCN[C@H]1CCc2nc(N)sc2C1	10&-12	10&-2
CC(=O)Oc1cn(C(C)C)c2nc(C)n3c(=O)c4ccccc4nc3c12	37	16
COC(=O)c1ccc(Cn2c(Cc3ccccc3)nc3ccccc32)o1	22	8
COc1ccc(N2CCN(C(=O)Cn3c(Cl)nc4c3c(=O)n(C)c(=O)n4C)CC2)cc1	21	-6
O=C(NC1CCCc2ccccc21)C1=NN(c2ccccc2)C(=O)CC1 (centres undefined)	10	13
CCc1nc(N)nc(N)c1-c1ccc(Cl)cc1	6	51
Cc1nc(N2CCCCC2)sc1C1Sc2ccccc2NC1=O (centres undefined)	-2	-5
O=C(Nc1nn2cnnc2s1)c1ccc(S(=O)(=O)N2CCc3ccccc3C2)cc1	0	4
COc1cc2c(cc1OC)CN(C(=O)C1CCCN(C(=O)c3ccc(Cl)cc3)C1)CC2 (centres undefined)	18	10
Nc1ccccc1NS(=O)(=O)c1cccs1	68	40
O=C(c1ccc(N2CCCC2=O)cc1)N(Cc1ccco1)Cc1cccs1	14	9
CC1CN(CC(=O)NC2CCCCC2)CC(C)O1 (centres undefined)	8	0
CCN(CC(=O)Nc1ccc2c(c1)OCCO2)C(=O)c1cnc(SC)n1-c1ccccc1	18	11
NS(=O)(=O)c1ccc(CNC(=O)COC(=O)C2CC3C=CC2C3)cc1 (centres undefined)	13	2
C=CCn1c(=O)c2ccccc2n2c(SCC(=O)N(C)C)nnc12	4	-4
O=C(Cc1n[nH]c(=O)c2ccccc12)N1CCc2ccccc21	18	8
c1ccc(-c2nc(CSc3nnc(-c4c[nH]c5ccccc45)o3)cs2)cc1	7	-4
CCOC(=O)/C=C1\SCC(=O)N1CCN1CCCc2cc(C)ccc21	-10	-16
CCS(=O)(=O)N1CCc2cc(C(=O)CSc3nnc(NC4CC4)s3)ccc21	28	7
O=C(NN=C1CCCC1)C1COc2ccccc2O1 (centres undefined)	6	20
CCCn1c(SCc2ccc(C(C)(C)C)cc2)n[nH]c1=O	18	4
Remaining list, next part
SMILES	BmaI1	BmaI1 counterscreen
CC1CCC[C@H](O)CCCCCc2cc(O)cc(O)c2C(=O)O1 (some centres undefined)	2	2
CC(C)C1NC(=O)NC1=O (centres undefined)	3	4
O=C(c1cncn1-c1ccccc1)N1CCCC(c2nc3ccccc3s2)C1 (centres undefined)	2	-1
O=C1/C(=C\c2ccco2)N=C(SCc2nnc(-c3ccccc3)o2)N1c1ccc(OC(F)F)cc1	10	-2
Cc1sc2ncnc(OCC(=O)N(C)Cc3ccco3)c2c1C	27	6
CCSc1nnc(-c2ccc(OC)cc2)n1C1CCCCC1C (centres undefined)	28	2
O=C(c1ccc(S(=O)(=O)N2CCCCC2)cc1)N1CCN(Cc2nc3ccccc3s2)CC1	9	17
C[C@]12CC[C@H](O)CC1=CC[C@@H]1[C@@H]2CC[C@]2(C)C(=O)CC[C@@H]12	16	26
CN(C(=O)Nc1ccccc1)C1CCCc2ccccc21 (centres undefined)	16	0
O=C(OCc1nc2ccccc2s1)C1CCCCC1	12	4
Cc1ccnc2nc(C(=O)NCCN3C(=O)S/C(=C\c4ccc5c(c4)OCO5)C3=O)nn12	13	8
Nc1nc(N)nc(SCC(=O)N2N=C(c3ccc4ccccc4c3)CC2c2ccccc2)n1 (centres undefined)	-20	8
O=C(CCS(=O)(=O)c1ccc(Cl)cc1)NC1CCCC1	4	10
Cc1ccc(CN2C(=O)c3ccccc3NC2c2ccccn2)cc1 (centres undefined)	18	14
CS(=O)(=O)c1ccc(Cl)c(NC(=O)C2CC(=O)N(Cc3ccccc3)C2)c1 (centres undefined)	-7	-6
CCc1cc(SCC(=O)C(C#N)c2nc(C)cs2)n2c(nc3ccccc32)c1C#N (centres undefined)	29	-2
CCCCn1c(SC(F)F)nc2ccccc2c1=O	10	-2

As entered above.
In BmaI1 counterscreen, Nc1nc(N)nc(SCC(=O)N2N=C(c3ccc4ccccc4c3)CC2c2ccccc2)n1 (centres undefined) has 8
In BmaI1 counterscreen, CCCCn1c(SC(F)F)nc2ccccc2c1=O has -2

Not all compounds are listed (hit frequency here may not be typical).
